A1 apoptosis 2: A1 inhibitors via caspase activation, primary screen, cell-based, luminescence, HTS, two replicates. MEF A1-2A-BIM cells, caspase-Glo luminescence, 3 h; percent of clofoctol response, DMSO zero. caspase activation, % (no concentration beside the values). 24,000 tested, under 10 active. AID 2465, 2010; in the data active means caspase activation above about 5.9%;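 further: wells of about 30 µL received 50 nL stock; the first replicate is given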
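system = A1-2A-BIM-expressing MEF cells | quantity = 2500 MEF cells/well | dosing = 50 nL compound per well, pinned | schedule = overnight cell settling, then 3 h compound exposure, 37 °C | signal = luminescence from DEVD-luciferin Caspase-Glo reagent, 1:1 in 50 mM HEPES, 1 h RT | read-out = Caspase-3/7 activation, seen as rise in luminescence signal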
Numbers without * were called inactive. A portion of the library, so the mix of outcomes need not match the whole.

Compound	A1 apoptosis 2
COc1cccc(NC(=O)N(C)C[C@H]2OCc3cnnn3CCCC(=O)N([C@H](C)CO)C[C@H]2C)c1	-0.9
C[C@H](CO)N1C[C@H](C)[C@@H](CN(C)C)OCCCC[C@H](C)Oc2ccc(NC(=O)CCCN(C)C)cc2C1=O	-1.0
Cc1ccc(S(=O)(=O)N(C)C[C@H]2Oc3ccc(NC(=O)NC4CCCCC4)cc3CC(=O)N([C@@H](C)CO)C[C@H]2C)cc1	0.4
C[C@@H]1CN([C@H](C)CO)C(=O)c2cc(NS(=O)(=O)c3cccs3)ccc2O[C@@H]1CN(C)S(=O)(=O)c1ccc(F)cc1	1.9
O=C(CCCCCC(=O)Nc1ccccc1O)N/N=C/c1ccc(O)cc1	0.6
C[C@H](CO)N1C[C@H](C)[C@H](CN(C)C(=O)Nc2ccccc2)Oc2ccc(NC(=O)Nc3ccccc3)cc2C1=O	-0.7
C[C@@H]1CN([C@@H](C)CO)C(=O)Cc2cc(NS(=O)(=O)c3ccc(Cl)cc3)ccc2O[C@H]1CN(C)C(=O)NC1CCCCC1	-0.1
COC(=O)CCCCCCC(=O)N/N=C/c1ccco1	1.1
COC(=O)CCCCCCC(=O)N/N=C/c1cc(F)ccc1O	-1.1
C[C@@H]1CN([C@H](C)CO)C(=O)Cc2cc(NS(=O)(=O)c3ccc(F)cc3)ccc2O[C@H]1CN(C)S(=O)(=O)c1cn(C)cn1	0.0
O=C(C1=C[C@@H](c2ccc(C(F)(F)F)cc2)C[C@@H](OCCCCO)O1)N1CCN(Cc2ccc3c(c2)OCO3)CC1	1.1
COc1ccc(NC(=O)Nc2ccc3c(c2)CC(=O)N([C@@H](C)CO)C[C@H](C)[C@H](CN(C)Cc2ccc(-c4ccccc4)cc2)O3)cc1	-0.8

Next section.
Compound	A1 apoptosis 2
COc1ccc(S(=O)(=O)Nc2ccc3c(c2)C(=O)N([C@@H](C)CO)C[C@@H](C)[C@@H](CN(C)S(C)(=O)=O)OCCCC[C@@H](C)O3)cc1	0.8
Cc1ccc(S(=O)(=O)N(C)C[C@@H]2Oc3c(NC(=O)Nc4ccc(C(F)(F)F)cc4)cccc3C(=O)N([C@@H](C)CO)C[C@H]2C)cc1	1.9
Cc1noc(C)c1NC(=O)Nc1ccc2c(c1)C(=O)N([C@@H](C)CO)C[C@@H](C)[C@H](CN(C)Cc1ccc(-c3ccccc3)cc1)O2	0.0
C[C@H](CO)N1C[C@H](C)[C@@H](CN(C)C(=O)NC2CCCCC2)Oc2ccc(NC(=O)Cc3ccccc3)cc2C1=O	0.1
C[C@@H]1CN([C@H](C)CO)C(=O)Cc2cc(NC(=O)C3CC3)ccc2O[C@H]1CN(C)Cc1ccncc1	1.4
C[C@H](CO)N1C[C@H](C)[C@H](CN(C)S(=O)(=O)c2cn(C)cn2)OCCCC[C@H](C)Oc2ccc(NC(=O)CCCN(C)C)cc2C1=O	0.7
C[C@@H]1CN([C@H](C)CO)C(=O)Cc2cc(NC(=O)Nc3ccccc3)ccc2O[C@@H]1CN(C)C(=O)Nc1ccccc1	1.0
C[C@@H]1CN([C@H](C)CO)C(=O)c2cc(NS(=O)(=O)c3ccc(Cl)cc3)ccc2O[C@@H]1CN(C)Cc1ccc(C(=O)Nc2ccccc2N)cc1	0.1
C[C@@H]1CN([C@@H](C)CO)C(=O)Cc2cc(NC(=O)Nc3ccccc3)ccc2O[C@@H]1CN(C)Cc1ccccc1	-0.6
C[C@@H]1CN([C@H](C)CO)C(=O)c2cc(NS(=O)(=O)c3ccc(F)cc3)ccc2O[C@@H](C)CCCCO[C@@H]1CN(C)CC1CCCCC1	-0.5
COc1ccc(CN(C)C[C@H]2Oc3ccc(NS(=O)(=O)c4ccc(OC)cc4)cc3CC(=O)N([C@H](C)CO)C[C@@H]2C)cc1	-1.4
C[C@H]1CN([C@@H](C)CO)C(=O)c2cccc(NS(C)(=O)=O)c2O[C@H]1CN(C)Cc1ccc2c(c1)OCO2	0.1

Rewritten as labelled records: part of the list above.
> COc1ccc(CN(C)C[C@H]2Oc3ccc(NS(=O)(=O)c4ccc(OC)cc4)cc3CC(=O)N([C@H](C)CO)C[C@@H]2C)cc1
  A1 apoptosis 2 = -1.4
> C[C@H]1CN([C@@H](C)CO)C(=O)c2cccc(NS(C)(=O)=O)c2O[C@H]1CN(C)Cc1ccc2c(c1)OCO2
  A1 apoptosis 2 = 0.1

(continued)
Compound	A1 apoptosis 2
CC(C)=CCN[C@H](CO)c1ccccc1	0.1
C[C@H](CO)N1C[C@H](C)[C@H](CN(C)S(=O)(=O)c2ccc(F)cc2)Oc2ncc(C#Cc3ccc(C(F)(F)F)cc3)cc2C1=O	-0.9
Cc1noc(C)c1S(=O)(=O)N(C)C[C@H]1OCCCC[C@@H](C)Oc2ccc(NC(=O)CCCN(C)C)cc2C(=O)N([C@@H](C)CO)C[C@H]1C	-0.6
Cc1noc(C)c1S(=O)(=O)N(C)C[C@@H]1Oc2c(NS(=O)(=O)c3cn(C)cn3)cccc2C(=O)N([C@H](C)CO)C[C@H]1C	-0.1
COC(=O)CCCCCCC(=O)N/N=C/c1cc(OC)c(OC)cc1Br	-0.3
COc1ccc(S(=O)(=O)Nc2ccc3c(c2)C(=O)N([C@H](C)CO)C[C@H](C)[C@H](CN(C)C(=O)Nc2ccc(C(F)(F)F)cc2)OCCCC[C@H](C)O3)cc1	-2.1
C[C@H](CO)N1C[C@H](C)[C@@H](CN(C)C(=O)Nc2cccc3ccccc23)Oc2ccc(NC(=O)Nc3cccc4ccccc34)cc2CC1=O	0.9
CC(C)NC(=O)N(C)C[C@H]1Oc2ccc(NC(=O)CCCCCC(=O)Nc3ccccc3N)cc2C(=O)N([C@@H](C)CO)C[C@@H]1C	0.5
C[C@@H]1CN([C@@H](C)CO)C(=O)Cc2cc(NC(=O)C3CC3)ccc2O[C@@H]1CN(C)Cc1ccc(Cl)c(Cl)c1	-0.4
COCCOC(=O)N1C(=O)[C@@]2(c3cc(C#CC4(O)CCCCCC4)ccc31)[C@H](c1ccccc1OCCO)N1[C@H](c3ccccc3)[C@H](c3ccccc3)OC(=O)[C@H]1[C@@H]2C(N)=O	-1.3
C[C@@H]1CCCCO[C@H](CN(C)S(=O)(=O)c2ccc(F)cc2)[C@H](C)CN([C@H](C)CO)C(=O)c2cc(NS(C)(=O)=O)ccc2O1	-0.4
C[C@H](CO)N1C[C@H](C)[C@@H](CN(C)Cc2ccc(-c3ccccc3)cc2)Oc2ccc(NC(=O)CCN3CCOCC3)cc2CC1=O	-0.2

Remaining list, next part:
Compound	A1 apoptosis 2
C[C@H](CO)N1C[C@H](C)[C@@H](CN(C)C)Oc2ccc(NC(=O)C3CC3)cc2CC1=O	1.6
COc1ccc(NC(=O)Nc2ccc3c(c2)C(=O)N([C@@H](C)CO)C[C@H](C)[C@@H](CN(C)S(=O)(=O)c2ccc(F)cc2)O3)cc1	-0.5
COc1ccc(S(=O)(=O)Nc2cccc3c2O[C@H](CN(C)Cc2ccc(Cl)c(Cl)c2)[C@H](C)CN([C@H](C)CO)C3=O)cc1	-1.0
C[C@@H]1CN([C@H](C)CO)C(=O)c2cc(NC(=O)Cc3cn(C)c4ccccc34)ccc2O[C@@H]1CN(C)S(C)(=O)=O	0.3
C[C@H](CO)N1C[C@H](C)[C@H](CN(C)C(=O)NC2CCCCC2)Oc2ccc(NS(C)(=O)=O)cc2CC1=O	-0.4
C[C@@H]1CN([C@H](C)CO)C(=O)c2cc(NC(=O)Nc3ccccc3)ccc2O[C@@H](C)CCCCO[C@H]1CN(C)S(=O)(=O)c1cn(C)cn1	1.2
Cc1nnc(Sc2ccc(/C=N/NC(=O)c3ccccc3O)o2)n1C	-0.6
C[C@@H]1CCCCO[C@@H](CN(C)C(=O)NC2CCCCC2)[C@@H](C)CN([C@@H](C)CO)C(=O)c2cc(NC(=O)Nc3ccccc3)ccc2O1	0.6
C[C@@H]1CCCCO[C@@H](CN(C)S(=O)(=O)c2ccccc2)[C@H](C)CN([C@@H](C)CO)C(=O)c2cc(NC(=O)Cc3ccccc3)ccc2O1	0.2
C[C@H](CO)N1C[C@H](C)[C@@H](CN(C)Cc2ccccc2)Oc2ccc(NC(=O)Nc3ccc4c(c3)OCO4)cc2CC1=O	-0.6
C[C@@H]1CCCCO[C@H](CN(C)Cc2ccc(C(F)(F)F)cc2)[C@@H](C)CN([C@H](C)CO)C(=O)c2cc(NS(=O)(=O)c3cn(C)cn3)ccc2O1	-0.5
CC(C)NC(=O)Nc1ccc2c(c1)C(=O)N([C@@H](C)CO)C[C@H](C)[C@H](CN(C)Cc1ccccc1)OCCCC[C@H](C)O2	-1.9

Further records follow.
Compound	A1 apoptosis 2
C[C@@H]1CN([C@@H](C)CO)C(=O)CCCn2cc(nn2)CO[C@@H]1CN(C)S(=O)(=O)c1ccc(-n2cccn2)cc1	-0.2
C=CCN1C(=O)[C@@]2(O[C@@H](CCO)[C@H]([Si](C)(C)c3ccc(OC)cc3)[C@H]2C)c2cc(N3CCC3=O)ccc21	0.6
Cc1noc(C)c1S(=O)(=O)Nc1ccc2c(c1)C(=O)N([C@H](C)CO)C[C@@H](C)[C@H](CN(C)C(=O)Nc1ccc(F)cc1)O2	-1.0
C[C@H](CO)N1C[C@H](C)[C@@H](CN(C)Cc2ccccc2)Oc2c(NS(C)(=O)=O)cccc2C1=O	0.4
C[C@@H]1CCCCO[C@H](CN(C)S(=O)(=O)c2ccc(Cl)cc2)[C@@H](C)CN([C@@H](C)CO)C(=O)c2cc(N(C)C)ccc2O1	-0.5
C[C@@H]1CN([C@@H](C)CO)C(=O)Cc2cc(NC(=O)Cn3cnnn3)ccc2O[C@@H]1CN(C)C(=O)Nc1ccccc1	0.6
CNC[C@@H]1OCCCC[C@@H](C)Oc2ccc(NS(=O)(=O)c3ccc(OC)cc3)cc2C(=O)N([C@@H](C)CO)C[C@H]1C	1.1
C[C@H](CO)N1C[C@H](C)[C@H](CN(C)Cc2ccc(Cl)c(Cl)c2)Oc2c(NC(=O)NC3CCCCC3)cccc2C1=O	-0.5
CCO[C@H]1OC(C(=O)O)=C[C@@H](c2ccc(Br)cc2)[C@@H]1CCCO	0.5
C[C@@H]1CN([C@@H](C)CO)C(=O)c2cccc(NS(C)(=O)=O)c2O[C@@H]1CN(C)CC1CC1	-0.5
C[C@@H]1CN([C@@H](C)CO)C(=O)c2cc(NC(=O)C3CCCCC3)ccc2O[C@H]1CN(C)S(=O)(=O)c1ccc(Cl)cc1	0.2
Cc1noc(C)c1NC(=O)N(C)C[C@@H]1OCCCC[C@@H](C)Oc2ccc(N(C)C)cc2C(=O)N([C@H](C)CO)C[C@@H]1C	-0.6

New compounds follow
Compound	A1 apoptosis 2
C[C@@H]1CN([C@H](C)CO)C(=O)c2cc(NS(=O)(=O)c3cccs3)ccc2O[C@@H]1CN(C)C(=O)Nc1ccccc1	0.1
C[C@H](CO)N1C[C@H](C)[C@@H](CN(C)CC2CCCCC2)OCCCC[C@H](C)Oc2ccc(NC(=O)Nc3ccccc3)cc2C1=O	-0.7
C[C@H]1CN([C@@H](C)CO)C(=O)c2cc(NC(=O)Nc3ccc4c(c3)OCO4)ccc2O[C@@H]1CN(C)Cc1ccncc1	-0.4
C[C@@H]1CCCCO[C@H](CN(C)C(=O)c2ccncc2)[C@@H](C)CN([C@H](C)CO)C(=O)c2cc(NS(=O)(=O)c3cn(C)cn3)ccc2O1	-1.3
C#Cc1ccc([C@@H]2C=C(C(=O)OCC=C)O[C@H](OCC)[C@H]2CCCO)cc1	0.8
C[C@@H]1CN([C@H](C)CO)C(=O)c2cccc(NS(=O)(=O)c3ccc(Cl)cc3)c2O[C@H]1CN(C)CC1CC1	-1.0
C[C@@H]1CN([C@@H](C)CO)C(=O)Cc2cc(N(C)C)ccc2O[C@H]1CN(C)C(=O)Nc1ccccc1	-0.2
COc1ccc(NC(=O)N(C)C[C@@H]2OCCCC[C@@H](C)Oc3ccc(NC(=O)CCCCCC(=O)Nc4ccccc4N)cc3C(=O)N([C@H](C)CO)C[C@@H]2C)cc1	0.2
C[C@@H]1CN([C@@H](C)CO)C(=O)c2cc(NC(=O)Cc3ccccc3)ccc2O[C@@H](C)CCCCO[C@@H]1CN(C)C(=O)CCC(F)(F)F	-0.2
C[C@H]1CN([C@@H](C)CO)C(=O)Cc2cc(NC(=O)CCN3CCOCC3)ccc2O[C@H]1CN(C)C	0.7
COC(=O)c1c2oc(c1C(=O)OC)C(=O)N[C@H](Cc1ccccc1)Cn1cc(nn1)[C@H](Cc1ccccc1)NC(=O)N[C@H](CO)CC2	-0.2
COc1ccc(CN(C)C[C@H]2OCCCC[C@H](C)Oc3ccc(NC(=O)C4CCCCC4)cc3C(=O)N([C@@H](C)CO)C[C@H]2C)cc1	2.7

Part of the list above, field by field.
> COc1ccc(NC(=O)N(C)C[C@@H]2OCCCC[C@@H](C)Oc3ccc(NC(=O)CCCCCC(=O)Nc4ccccc4N)cc3C(=O)N([C@H](C)CO)C[C@@H]2C)cc1
  A1 apoptosis 2 = 0.2
> C[C@@H]1CN([C@@H](C)CO)C(=O)c2cc(NC(=O)Cc3ccccc3)ccc2O[C@@H](C)CCCCO[C@@H]1CN(C)C(=O)CCC(F)(F)F
  A1 apoptosis 2 = -0.2
> C[C@H]1CN([C@@H](C)CO)C(=O)Cc2cc(NC(=O)CCN3CCOCC3)ccc2O[C@H]1CN(C)C
  A1 apoptosis 2 = 0.7

Source: PubChem BioAssay (Broad Institute)
